miR-21 reporter – raises the signal of a miR-21 reporter; 340,000 tested, under 10 active; HeLa miR-21 FLuc reporter, luciferase, 48 h; AID 2288; Potency, µM (highest dose often 38.3 µM), without a hit: at the top dose reporter change, positive = more light; active = well fitted rising curve with a large enough effect; inconclusive = small, poorly fitted or top-dose-only effect; inactive = no such curve, though single readings can be large or run the other way;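 also: % of control where 0% means no effect; miR-21 action dims this reporter so a rising signal means less miR-21 action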
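HeLa cells endogenously expressing miR-21, stably carrying CMV-driven firefly luciferase with a downstream miR-21 binding site, 2000 cells/well. Titrations up to approximately 40 uM, 48 hours; luciferase luminescence read.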
GLA inh pH 4.5 – blocks human alpha-galactosidase A at pH 4.5; activity change, negative = inhibition, % at 105 µM; P06280; AID 1467; purified enzyme, 4-MU-alpha-Gal fluorescence, pH 4.5; 230,000 tested, under 10 active; inconclusive = small, poorly fitted or top-dose-only inhibition, or a rising curve; inactive = flat fitted curve, though single readings scatter; no compound was filed as active;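 also: 0% = full activity with enzyme and -100% = basal without enzyme; dose as in the result columns while the protocol names 77 µM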
Rango dissoc inh – inhibition of RanGTP-driven Rango-importin beta dissociation | Biochemical FRET Rango-importin beta, RanGTP-induced dissociation | actives 0.071% (n = 340,000) | AID 540253 | Potency, µM (titrated, usually from 46.1 µM), without a hit: at the top dose activity change, negative = inhibition; active means falling FRET ratio curve, often poorly fitted, with flat reads before Ran was added; inconclusive means other falling curves, or compound fluorescence or quenching; inactive means flat or rising ratio curve;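 also: potency is read from the fitted curve at half-maximal effect; % of control where 0% means no effect; nearly all actives have a fitted effect of over 45% in size; -100% = wells without RanGTP and RCC1; the record marks most hits as doubtful in a second field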
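FRET read at 45 min, room temperature: inhibitors block the CFP/YFP signal rise when RanGTP (0.6 uM Ran, 2 mM GTP, 0.2 uM RCC1) frees Rango (0.1 uM) from importin beta (0.25 uM). Pre-read after 5 min compound exposure flags interference.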
Rango-impB inh – prevents formation of the Rango-importin beta complex; Q14974; Rango CFP/YFP FRET sensor + importin beta, 45 min; Potency, µM (top dose mostly 92.2 µM), for the others: at the top dose inhibition of complex formation; actives 0.031% (n = 340,000); active = rising FRET ratio curve, often small or poorly fitted; inconclusive = mostly compound fluorescence or quenching in the first reads; inactive = flat curves in all reads;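 also: potency is read from the fitted curve at half-maximal effect; 0% = DMSO wells and 100% = buffer wells lacking importin beta; nearly all actives have a fitted effect of over 15% in size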
Target sequence (Q14974 whole entry, looked up): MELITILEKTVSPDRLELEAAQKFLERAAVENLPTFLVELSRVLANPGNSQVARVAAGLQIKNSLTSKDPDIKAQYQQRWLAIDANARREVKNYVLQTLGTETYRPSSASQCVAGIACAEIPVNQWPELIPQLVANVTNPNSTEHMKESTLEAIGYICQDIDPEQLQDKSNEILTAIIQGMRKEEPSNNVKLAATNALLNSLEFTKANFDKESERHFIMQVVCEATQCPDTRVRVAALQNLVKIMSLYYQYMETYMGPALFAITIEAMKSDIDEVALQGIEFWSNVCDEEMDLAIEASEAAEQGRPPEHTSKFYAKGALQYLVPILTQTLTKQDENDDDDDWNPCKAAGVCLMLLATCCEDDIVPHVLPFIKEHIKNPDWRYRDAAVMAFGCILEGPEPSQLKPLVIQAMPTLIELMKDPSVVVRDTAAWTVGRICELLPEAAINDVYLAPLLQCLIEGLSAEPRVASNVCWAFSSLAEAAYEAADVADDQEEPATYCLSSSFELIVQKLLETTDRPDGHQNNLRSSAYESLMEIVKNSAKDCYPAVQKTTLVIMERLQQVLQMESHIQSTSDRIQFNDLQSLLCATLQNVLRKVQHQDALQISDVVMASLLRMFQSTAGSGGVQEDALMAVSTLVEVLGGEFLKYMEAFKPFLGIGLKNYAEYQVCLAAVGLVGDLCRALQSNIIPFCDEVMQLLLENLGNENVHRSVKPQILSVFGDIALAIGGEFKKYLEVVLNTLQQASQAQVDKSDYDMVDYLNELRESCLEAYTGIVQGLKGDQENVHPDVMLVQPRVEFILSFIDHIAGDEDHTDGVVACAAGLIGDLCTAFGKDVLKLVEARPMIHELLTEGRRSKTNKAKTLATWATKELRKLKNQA
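Inhibition scored from the CFP 486 nm/YFP 530 nm FRET ratio 45 min after adding 0.125 microM importin beta to 50 nM Rango biosensor preincubated 5 min with compound (room temperature, PBS with DTT, Tween-20, BSA). No-importin wells as positive control.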
Starred values were filed as active, the others as inactive; ? = inconclusive; . = no result given; & = joins results of further samples. The list is partial (hit frequency here may not be typical).

Rango-impB inh | Rango dissoc inh | miR-21 reporter | GLA inh pH 4.5 | compound
0.7% | 0% | -13% | 2 | CCCCc1[nH]c(=O)c(C#N)c2c1CCCC2
-0.5% | 1% | . | . | O=C(N[C@@H]1C/C=C\C[C@@H](CC(=O)N(CCO)Cc2ccccc2)C(=O)NCCOC1=O)OCC1c2ccccc2-c2ccccc21
-1.0% | -3% | -14% | . | COc1ccccc1CNC(=O)C(=O)c1cn(CC(=O)N2CCOCC2)c2ccccc12
? | ? | . | . | C(=Cc1c[nH]c2ccccc12)c1nccc2ccccc12
4.4% | 19% | . | . | O=C(C1CC=CCC1)N1CCN(S(=O)(=O)c2ccc(F)cc2)CC1 (stereo unspecified)
-1.9% | 16% | 2% | -1 | CCOc1ccc(CCNC(=O)c2[nH]c(C)c(C(C)=O)c2C)cc1OCC
-3.1% | -4% | . | . | CC(OC(=O)CCNS(=O)(=O)c1ccccc1)C(=O)Nc1ccc(S(=O)(=O)N2CCCCC2)cc1 (stereo unspecified)
1.7% | -19% | -8% | 0 | COc1ccccc1-c1cc(-c2cc(Cl)ccc2O)n[nH]1

Rango-impB inh | Rango dissoc inh | miR-21 reporter | GLA inh pH 4.5 | compound
2.6% | 12% | -1% | . | COc1ccc(C(C)=O)cc1COC(=O)CCNS(=O)(=O)c1ccc(C(C)=O)cc1
-2.3% | 22% | 5% | . | CCCN1C2CCCC1CC(NC(=O)c1ccccc1OC)C2 (stereo unspecified)
-13% | ? | 1% | -17 | Cc1cccc(Nc2nnc(SC/C(O)=C(\C#N)c3nc4ccccc4[nH]3)s2)c1C
? | ? | -7% | 1 | CCCCCCOC(=O)C(C#N)c1nc2ccccc2nc1N1CCN(CC)CC1 (stereo unspecified)
-0.6% | 5% | . | . | C[C@]12C(=O)N(c3ccc(Cl)cc3)C(=O)N1[C@@H]1c3ccccc3OC[C@@H]1[C@H]2c1ccccc1
0.5% | 3% | -7% | -1 | O=C(CN1C(=O)c2ccccc2S1(=O)=O)N1CCOCC1
-1.8% | -11% | 0% | . | CC(C)C[C@@H](CO)N1CCN(CCCc2ccccc2)CCC1=O
-2.2% | -25% | -2% | -1 | Cc1ccc(/C=C/c2nc3ccccc3s2)s1

An excerpt of these results, bar-delimited:
SMILES | Rango-impB inh | Rango dissoc inh | miR-21 reporter | GLA inh pH 4.5
O=C(CN1C(=O)c2ccccc2S1(=O)=O)N1CCOCC1 | 0.5% | 3% | -7% | -1
CCCCCCOC(=O)C(C#N)c1nc2ccccc2nc1N1CCN(CC)CC1 (stereo unspecified) | ? | ? | -7% | 1

(further entries)
Rango-impB inh | Rango dissoc inh | miR-21 reporter | GLA inh pH 4.5 | compound
0.0% | -8% | -25% | -1 | CC(=O)n1nc(-c2ccc(Cl)cc2)nc1NCc1ccco1
0.6% | 2% | 1% | 4 | Cc1ccc(S(=O)(=O)NCC(C)NS(C)(=O)=O)cc1 (stereo unspecified)
-1.5% | 1% | -5% | -10 | CCc1nnc(NS(=O)(=O)c2ccc(NC(=S)NC(=O)/C=C/c3ccccc3)cc2)s1
3.9% | 0% | -7% | 4 | COC(=O)c1cccc(-c2ccc(C(c3c(C)[nH][nH]c3=O)c3c(C)[nH][nH]c3=O)o2)c1
0.6% | -8% | 1% | 2 | Cc1cc(C)n(C(=O)CNC(=O)Cc2ccccc2)n1
-1.5% | 25% | -55% | -12 | O=c1c2c3c(sc2nc2n1CCCCC2)CCCC3
0.7% | -8% | -9% | -12 | O=C1C(Cc2cccc([N+](=O)[O-])c2)S/C(=N/N=C/c2ccco2)N1c1ccccc1 (stereo unspecified)
0.8% | -7% | -40% | -2 | COc1cccc(CNC(=O)c2n[nH]c3ccccc23)c1

Rango-impB inh | Rango dissoc inh | miR-21 reporter | GLA inh pH 4.5 | compound
-0.8% | -19% | -8% | 2 | Cc1ccsc1C(=O)N1CCCC(CCC(=O)NCc2ccc(F)c(F)c2)C1 (stereo unspecified)
-0.7% | -13% | -13%&-3% | 1 | COc1ccc(-n2cnc3cc(C(=O)NC4CCCC4)ccc32)cc1
2.4% | -8% | 0% | -16 | Cc1ccc(C(=O)C(C)OC(=O)c2cc3cc([N+](=O)[O-])ccc3oc2=O)cc1 (stereo unspecified)
3.5% | -4% | -2% | . | CCC(C)NC(=O)C1c2ccccc2C(=O)N1Cc1ccccc1 (stereo unspecified)
-1.2% | 15% | -19% | -14 | Cc1ccccc1C(=O)N1CCc2ccccc2C1
5.6% | -1% | -1% | 8 | O=C(N/N=C\c1ccc(O)c([N+](=O)[O-])c1)C1COc2ccccc2O1 (stereo unspecified)
? | -10% | 0% | 2 | CCOC(=O)c1sc(C)c(C(N)=O)c1NC1=NCCCCC1
-0.3% | 0% | -2% | -10 | Cc1ccc(C2/C(=C(/O)c3ccc(Cl)cc3)C(=O)C(=O)N2CC2CCCO2)o1 (stereo unspecified)

Rango-impB inh | Rango dissoc inh | miR-21 reporter | GLA inh pH 4.5 | compound
. | . | -13% | 1 | COc1cc(C2NC(C(=O)O)CS2)ccc1OCc1ccccc1C#N (stereo unspecified)
0.3% | -14% | -11% | -22 | CCS(=O)(=O)N1Cc2ccccc2CC1C(=O)Nc1ccccc1OC (stereo unspecified)
-0.5% | 0% | . | . | CCOC(=O)c1nc2c(=O)n(C)c(=O)n(C)c2n(C)c1=O
-3.2% | -3% | . | . | Cc1ccsc1CN(C)CC(=O)Nc1cccc(S(=O)(=O)N(C)c2ccccc2)c1
4.7% | -1% | 0% | 3 | COC(=O)Nc1ccc(OCC(=O)N2CCOCC2)cc1
2.0% | 3% | . | . | COc1cccc(/C=C/C(=O)OCC(=O)c2c(N)n(C)c(=O)n(C)c2=O)c1
0.1% | 1% | -14% | 6 | O=C(NCCN1CCOCC1)c1ccc2c(c1)ncn2C1CCCCC1
0.2% | -20% | -2% | 2 | CCOC(=O)N1CCN(C(=O)COc2ccc(Cl)cc2)CC1

Rango-impB inh | Rango dissoc inh | miR-21 reporter | GLA inh pH 4.5 | compound
-3.4% | -10% | -5% | -2 | COc1cccc(CN(Cc2ccccc2F)S(=O)(=O)c2ccc(S(=O)(=O)NCc3ccccc3)cc2)c1
4.2% | 12% | -39% | 6 | Cc1c(C(=O)NCC(C)C)sc2nc(-c3ccc(F)cc3)cn12
0.2% | 2% | 0% | -1 | Cc1noc(C)c1C(=O)Nc1ccccn1
0.0% | 7% | -13% | 1 | CCCN(Cc1cc2ccccc2[nH]c1=O)C(=O)c1cccc([N+](=O)[O-])c1
? | -10% | -3% | -7 | COc1ccc(CC(=O)NC(=S)Nc2ccc(S(=O)(=O)NC(C)(C)C)cc2)cc1
-4.0% | -13% | -1% | -7 | Cc1ccc(C(=O)NCC(=O)OCC(=O)Nc2ccccc2C#N)s1
-0.8% | 3% | . | . | CCCCN1CC(=O)N2[C@H]3c4ccccc4OC[C@@H]3[C@H](c3ccccc3)[C@]2(C)C1=O
-2.4% | 0% | -1% | -6 | CC1(C)CC(=NNC(=O)c2n[nH]c3c2CCC3)CC(C)(C)N1
-5.6% | -3% | -3% | . | CCOc1ccc(S(=O)(=O)Nc2cc(F)ccc2F)c2cccnc12
0.6% | 1% | 2% | . | Cc1ccc(CNS(=O)(=O)c2ccc(CN3C(=O)c4cccnc4C3=O)cc2)o1

In the list so far, these have four or more nitrogen atoms.
Rango-impB inh | Rango dissoc inh | miR-21 reporter | GLA inh pH 4.5 | compound
-13% | ? | 1% | -17 | Cc1cccc(Nc2nnc(SC/C(O)=C(\C#N)c3nc4ccccc4[nH]3)s2)c1C
? | ? | -7% | 1 | CCCCCCOC(=O)C(C#N)c1nc2ccccc2nc1N1CCN(CC)CC1 (stereo unspecified)
0.0% | -8% | -25% | -1 | CC(=O)n1nc(-c2ccc(Cl)cc2)nc1NCc1ccco1
-1.5% | 1% | -5% | -10 | CCc1nnc(NS(=O)(=O)c2ccc(NC(=S)NC(=O)/C=C/c3ccccc3)cc2)s1
3.9% | 0% | -7% | 4 | COC(=O)c1cccc(-c2ccc(C(c3c(C)[nH][nH]c3=O)c3c(C)[nH][nH]c3=O)o2)c1
0.7% | -8% | -9% | -12 | O=C1C(Cc2cccc([N+](=O)[O-])c2)S/C(=N/N=C/c2ccco2)N1c1ccccc1 (stereo unspecified)
-0.5% | 0% | . | . | CCOC(=O)c1nc2c(=O)n(C)c(=O)n(C)c2n(C)c1=O
0.1% | 1% | -14% | 6 | O=C(NCCN1CCOCC1)c1ccc2c(c1)ncn2C1CCCCC1
-2.4% | 0% | -1% | -6 | CC1(C)CC(=NNC(=O)c2n[nH]c3c2CCC3)CC(C)(C)N1

Compound activity deposited in PubChem by National Center for Advancing Translational Sciences (NCATS).
